# Bioassay records as filed in PubChem BioAssay.
# Sfp inh – Sfp phosphopantetheinyl transferase inhibition; Q9F4F7; Biochemical Sfp PPTase activity, qHTS; Potency, µM, for the others: max response, negative = inhibition, most hits filed as inhibitors; 310,000 compounds, 3.5% hits; AID 1490; active = well fitted inhibition curve with a large enough effect; inconclusive = small, poorly fitted or top-dose-only effect, or another doubt; inactive = no such curve, though single readings can be large or run the other way;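 note: the enzyme is Sfp with the accession as filed and its product quenches rhodamine fluorescence; potency is the fitted concentration of half-maximal effect; 0% = enzyme reaction without inhibitor and -100% = no enzyme wells; top concentration of the series not given in the record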
#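 Compounds were incubated with enzyme (final 15 nM) for 15 min at room temperature before substrate addition started the reaction. Fluorescence at 525 nm excitation, 598 nm emission was recorded immediately and after 30 minutes.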
# ClpP mod – qHTS Assay for Activators of ClpP. ATP-dependent Clp protease proteolytic subunit (Bacillus subtilis (strain 168)), P80244. purified B. subtilis ClpP, FRET peptide cleavage, 20 min. Potency, µM (doses to about 57.5 µM), for inactives: at the highest dose activity change, negative = active. 340,000 compounds, 1.9% hits; active = well fitted falling curve with a large enough effect; inconclusive = small, poorly fitted or top-dose-only effect; inactive = no such curve, though single readings can be large or run the other way; note: potency is the fitted concentration of half-maximal effect; the source files actives as falling curves though it sought activators and does not explain the sign; nearly all actives have a fitted effect of over 65% in size; many hits overshoot -100%
# Target sequence (P80244 whole entry, looked up): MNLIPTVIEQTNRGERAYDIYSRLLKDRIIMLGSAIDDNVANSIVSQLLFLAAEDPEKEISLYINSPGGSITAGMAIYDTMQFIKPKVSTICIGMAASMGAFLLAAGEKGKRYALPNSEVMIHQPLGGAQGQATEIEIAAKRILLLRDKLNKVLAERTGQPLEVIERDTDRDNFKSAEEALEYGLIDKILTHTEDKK
#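 FRET quenching reversal measured ClpP activation: 10 microg/mL B. subtilis ClpP at pH 8 with the FRET-FV decapeptide, read at 430 nm after 320 nm excitation. The 20-min minus 0-min signal was scaled between DMSO/no-enzyme wells and ADEP (5.8 microM final).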
# gsp ag – agonists of gsp mutant (McCune-Albright syndrome) | gsp mutant cells, cAMP HTRF, 30 min; control for the full effect not named in the record | Potency, µM (doses to about 76.9 µM), without a hit: at the top dose activation (cAMP increase), most hits filed as activators | 340,000 compounds, 0.13% hits; active = well fitted activation curve with a large enough effect; inconclusive = small, poorly fitted or top-dose-only effect, or another doubt; inactive = no such curve, though single readings can be large or run the other way; cell line not stated here;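 note: phosphodiesterase inhibitor Ro 20-1724 added with compounds to block cAMP breakdown; potency is the fitted concentration of half-maximal effect; nearly all actives have a fitted effect of over 60% in size; about a fifth of the inactives were tested at one dose only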
#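 Cells in DMEM/10% FBS with G418 were pretreated with compounds in DMSO plus […] (300 uM stock) for 30 min at 37C. cAMP was measured by HTRF (cAMP-d2 plus anti-cAMP antibody-K) after 30 min at room temperature.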
# Menin MLL FP FL – menin-MLL binding inhibition, fluorescein peptide | Fluorescence polarization, fluorescein-MLL peptide displacement from menin | FP activity change, % at 61.4 µM | 290,000 tested, under 10 active; inconclusive = falling polarisation curve, or a change in total fluorescence; inactive = total fluorescence flat and polarisation flat or rising; no compound was filed as active; the % refers to the polarisation; negative = inhibition;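 note: % of control where 0% means no effect; inhibitors lower the polarisation; unlabelled MLL peptide was the positive control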
# TRPV1 PAM – human TRPV1 potentiation; 320,000 compounds, 0.02% hits; TRPV1-expressing cells, Fluo-8 calcium influx, capsaicin EC20 potentiation; host cell line not named in the record; control for the full effect not named in the record; potentiation, % at 8.33 µM; active means potentiation above 80%; inconclusive means 30% to 80%; inactive means below 30%; note: 0% is about no effect
#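 Cells expressing TRPV1 were dye-loaded with Fluo-8 and read kinetically: 10 s baseline, 3 min after compound (agonist portion), then 2 min after EC20 capsaicin (allosteric enhancer portion). Calcium-bound dye fluorescence at 480/520 nm.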
# D2 PAM – positive allosteric modulators of human D2 dopamine receptor. P14416. DiscoveRx D2 beta-arrestin cells, luminescence, 90 min; 100% = 57 uM dopamine signal. potentiation, % (no concentration beside the values). 360,000 compounds, 0.23% hits. AID 624464; active = potentiation of 50% or more; inconclusive = 30% to 50%; inactive = 30% or less;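 note: compound concentration not given in the record; tested on top of an EC20 dose of dopamine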
# Target sequence (P14416 whole entry, looked up): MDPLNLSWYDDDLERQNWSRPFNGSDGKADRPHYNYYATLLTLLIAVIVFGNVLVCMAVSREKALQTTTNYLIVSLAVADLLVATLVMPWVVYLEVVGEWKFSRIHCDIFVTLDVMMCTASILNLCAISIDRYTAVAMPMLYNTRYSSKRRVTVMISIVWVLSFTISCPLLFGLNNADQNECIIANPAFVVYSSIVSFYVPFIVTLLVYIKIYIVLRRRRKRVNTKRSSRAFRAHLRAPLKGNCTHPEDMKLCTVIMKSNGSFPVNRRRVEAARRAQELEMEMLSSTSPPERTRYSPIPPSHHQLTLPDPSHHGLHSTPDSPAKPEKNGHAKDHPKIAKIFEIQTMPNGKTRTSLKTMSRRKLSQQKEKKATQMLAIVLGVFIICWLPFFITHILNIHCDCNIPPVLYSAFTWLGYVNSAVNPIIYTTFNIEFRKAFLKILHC
#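 PathHunter beta-arrestin assay in DiscoveRx D2 cells. Compounds were added with an EC20 of dopamine (50 nM final) for 90 min at 37 deg C. Luminescence was read 1 h after detection reagent, with 57 uM dopamine as the EC100 control.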
# gsp antag – antagonizes gsp, the McCune-Albright syndrome mutation | AID 624288 | Potency, µM (titrated, usually from 76.9 µM), without a hit: at the highest dose activity change, negative = inhibition, usual class: inhibitors | 340,000 compounds, 0.4% hits | gsp-mutant cells, cAMP HTRF, 30 min; control for the full effect not named in the record; active = falling curve of any shape with a large fitted effect; inconclusive = falling curve, mostly with a smaller effect; inactive = flat or rising curve; cell line not stated here;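 note: intracellular cAMP measured with PDE inhibitor Ro 20-1724 present during compound exposure; potency is the fitted concentration of half-maximal effect; % is set by controls: 0 for no effect and ±100 for the full control effect; nearly all actives have a fitted effect of over 65% in size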
#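 Measurement of cellular cAMP by homogeneous time-resolved fluorescence following a 30 min compound exposure at 37C. The PDE inhibitor […] was present throughout; the assay buffer was DPBS with 0.05% BSA and 0.005% Tween 20.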
# Starred values were filed as active, the others as inactive; ? = inconclusive; nt = not tested or not shown; & = joins results of further samples; [ ] = remark or other dose. Outcome played no part in choosing rows, and some 5.1% of all compounds hit somewhere here.
SMILES,Sfp inh,ClpP mod,gsp ag,Menin MLL FP FL,TRPV1 PAM,D2 PAM,gsp antag
O=C1[C@@H](c2ccccc2)[C@@H](c2ccccc2)N1c1cccnc1,nt,0.3%,nt,nt,nt,-5,3%
COC(=O)[C@H](C(C)C)N(Cc1ccccc1)S(=O)(=O)CCN1CCN(c2ccccc2)CC1,nt,-2.6%,nt,nt,nt,-20,-4%
COc1ccccc1Nc1n[nH]c(=S)s1,79µM*,nt,-3%[15.4 µM],6.3,5,-12,-19%
CCCC(=O)Nc1nc(C(=O)OCC)cs1,-13%,-0.1%,-33%[inhibitor],3.9,15,-4,2%
Oc1ccc(/C=N/N(c2ccccc2)c2ccccc2)cc1O,2%,-1.7%,6%,nt,-1,-9,-6%
CC(=O)c1ccc(NC(=O)C(C)OC(=O)c2ccc3c(c2)nc(C)n3-c2ccccc2)cc1 (stereo not given),9%,-2.7%,-28%,-0.2,3,-20,-28%
CCOC(=O)/C(=C\C=C\N1CCOCC1)C(C)=O,-2%,nt,-3%[15.4 µM],4.2,10,-5,8%
COc1ccc(NC(=O)COc2ccc(S(=O)(=O)N3CCOCC3)cc2C)cc1OC,9%,nt,9%[15.4 µM],-3.8,-9,-10,-40%
O=C(COc1ccc(-n2cnnn2)cc1)N1CCN(c2ccc(F)cc2)CC1,4%,-1.0%,9%,0.0,-4,7,-14%
Cc1ccc2c(N)c(C(=O)c3ccccc3)sc2n1,-25%,0.3%,-6%[15.4 µM],5.1,-20,-7,-6%

# Sfp inh: what is marked active above.
Structure | Sfp inh | gsp ag | Menin MLL FP FL | D2 PAM | gsp antag
COc1ccccc1Nc1n[nH]c(=S)s1 | 79µM* | -3%[15.4 µM] | 6.3 | -12 | -19%

# Continuation:
SMILES,Sfp inh,ClpP mod,gsp ag,Menin MLL FP FL,TRPV1 PAM,D2 PAM,gsp antag
Cc1cc2[nH]c(=S)[nH]c2cc1C,35µM*,-3.1%,-41%,2.3,6,-4,10%
CC(C)Oc1ccc(CNC(=O)Cn2c(=O)oc3ccccc32)cc1,-3%,1.3%&-0.3%,-3%,7.1,-7,-2,-2%
O=c1c2c3c(sc2nc2sc(C4CC4)nn12)CCCC3,10%,-1.6%,0%,1.0,-14,-8,7%
Cc1oc2c(c1C(=O)Nc1cccc(C(=O)O)c1)CCCC2,18%,-5.2%,-37%[inhibitor],0.9,7,-10,-11%
Cc1cccc(OCC(=O)Nc2ccc3oc(=O)ccc3c2)c1,-4%,nt,-29%,-1.4,-21,2,0%
COc1ccc(NS(=O)(=O)/C=C/c2ccccc2)cc1,8%,-4.7%,-17%,nt,4,-12,-2%
Cn1c2ccccc2c(=O)c2c(=O)n(C3CCCCCC3)c(C3CCCCC3)nc21,-2%,0.3%,26%,42[activator],-22,-11,33%[activator]
Cc1ccc(NC(=S)N2CCCC2)cc1Cl,11%,0.6%,13%,nt,-8,8,-4%
O=C(NCC(O)CO)c1ccc2[nH]c3ccccc3c2c1 (stereo not given),18%,28µM*,-20%,4.9,1,7,0%
COC(=O)c1cc(NC(=O)CC2SCCNC2=O)cc(C(=O)OC)c1 (stereo not given),-16%,-2.6%,-14%,-0.4,23,-1,-1%

# Pulled by compound from the entries so far, four records:
SMILES,Sfp inh,ClpP mod,gsp ag,Menin MLL FP FL,TRPV1 PAM,D2 PAM,gsp antag
Cc1cc2[nH]c(=S)[nH]c2cc1C,35µM*,-3.1%,-41%,2.3,6,-4,10%
Cn1c2ccccc2c(=O)c2c(=O)n(C3CCCCCC3)c(C3CCCCC3)nc21,-2%,0.3%,26%,42[activator],-22,-11,33%[activator]
Cc1oc2c(c1C(=O)Nc1cccc(C(=O)O)c1)CCCC2,18%,-5.2%,-37%[inhibitor],0.9,7,-10,-11%
COC(=O)c1cc(NC(=O)CC2SCCNC2=O)cc(C(=O)OC)c1 (stereo not given),-16%,-2.6%,-14%,-0.4,23,-1,-1%

# The list continues:
SMILES,Sfp inh,ClpP mod,gsp ag,Menin MLL FP FL,TRPV1 PAM,D2 PAM,gsp antag
O=C(CSc1ncn[nH]1)NCc1ccc2c(c1)OCO2,9%,-0.7%,0%[15.4 µM],0.5,-2,-6,7%
CCc1nn(C(C)C(=O)N2CCN(c3ccccc3)CC2)c(=O)c2cc3occc3n12 (stereo not given),6%,-1.6%&-4.5%,27%,nt,6,-8,2%
Cc1ccc(S(=O)(=O)NC2=NCN(C)CN2)cc1[N+](=O)[O-],13%,0.4%,-14%,nt,-15,-7,15%
CCn1nnc2sc3c(c2c1=O)CCC(C)C3 (stereo not given),-10%,-25%,4%,1.9,10,6,16%
CCOC(=O)N/N=C/c1ccc(OCCSc2ccc(Cl)cc2)c(OCC)c1,-14%,1.5%,-6%,3.9,18,16,-8%
COc1cccc(-c2nnc(SCC(=O)N(C(C)C)C(C)C)o2)c1,13%,1.0%,?,1.6,-5,-11,1%
CCN(Cc1nc2ccccc2c(=O)[nH]1)C(=O)c1cccc(NC(=O)c2cccs2)c1,nt,-3.1%,-4%[15.4 µM],nt,27,3,-12%
Cc1cc(C(=O)COC(=O)c2n[nH]c3ccccc23)c(C)n1C,0%,-2.2%,-6%,1.0,6,-6,-15%
CCOC(=O)c1cc2c(OC)c(OC)ccc2c2[nH]cc(C#N)c(=O)c12,nt,-0.3%,?,nt,nt,-5,nt
Cc1ccc(CS(=O)(=O)Cc2ccc(C(=O)NCc3ccco3)o2)cc1,11%,0.3%,-25%,1.7,-5,1,-12%
O=S1(=O)CCN(C2CCCCCCCCCCC2)CC1,nt,-1.0%,-79%[inhibitor],nt,nt,-4,nt
CS(=O)(=O)c1sc(C(=O)NC(=S)Nc2ccc(OC(F)(F)F)cc2)c2c1C=CCC2,45µM*,nt,-5%,0.2,2,-6,-14%
O=C(NCC(=O)N(c1ccc(Cl)cc1)C(C(=O)NC1CCCC1)c1ccncc1)c1ccco1 (stereo not given),14%,nt,7%[15.4 µM],1.5,9,-5,9%
OCCCNc1nc(-c2ccc(Cl)cc2)nnc1-c1ccc(Br)cc1,-6%,-1.6%,?,-0.9,8,-19,-26%
COc1ccc(C2C=C(c3ccccc3)Nc3nc(CCCO)nn32)cc1 (stereo not given),5%,24%,12%,?,6,4,-5%
CN(C)S(=O)(=O)c1ccc(Cl)c(C(=O)Nc2cccc3ncccc23)c1,13%,nt,-8%[15.4 µM],-9.1,?,2,7%
CC(C)CCOCC(=O)Nc1cccc(C(=O)O)c1,4%,-2.3%,2%,-3.0,16,-7,-9%
CC(=O)c1ccc(OCC(=O)OC(C)C(=O)NC2CCCCC2)cc1 (stereo not given),nt,-0.1%,?,nt,-3,9,2%
O=C(O[C@@H](C(=O)O)[C@@H](OC(=O)c1ccccc1)C(=O)O)c1ccccc1,nt,-0.2%,nt,nt,-2,-9,2%
O=C(O)c1cc(O)c2c(c1)[C@@H]([C@H]1c3cc(C(=O)O)cc(O)c3C(=O)c3c(O[C@@H]4O[C@H](CO)[C@@H](O)[C@H](O)[C@H]4O)cccc31)c1cccc(O[C@@H]3O[C@H](CO)[C@@H](O)[C@H](O)[C@H]3O)c1C2=O,nt,2.4%,nt,nt,nt,7,3%
O=C(COC(=O)c1cccc(S(=O)(=O)N2CCOCC2)c1)NCc1ccccc1,nt,-0.7%,3%[15.4 µM],nt,nt,-13,-6%
COc1cccc(NC(=O)C2C3CC4OC(=O)C2C4C3)c1 (stereo not given),5%,-0.9%,0%,2.3,-6,1,4%
N#Cc1cnn2ccc(-c3cc(N4CCOCC4)ccc3[N+](=O)[O-])nc12,11%,nt,-8%[15.4 µM],-2.0,-6,-2,-8%
Cc1ccc2nc(-c3ccc(NC(=O)COC(=O)c4ccc(Br)o4)cc3)sc2c1,24%,8.9µM*,-10%,nt,0,-7&-3,14%
COc1cccc(S(=O)(=O)N(C)C[C@@H]2OCc3cnnn3CCCC(=O)N([C@H](C)CO)C[C@@H]2C)c1,nt,1.0%,0%,nt,nt,6,nt
CCOC(=O)CNC(=O)c1nn(-c2cccc(OC)c2)c(=O)c2ccccc12,5%,-1.0%,28%,2.1,3,22,0%
COc1ccccc1C(=O)N/C(=C\c1cn(C)c2ccccc12)C(=O)NCCN1CCOCC1,nt,-5.4%,-43%[inhibitor],nt,nt,-17,nt
N#CC(C#N)=c1ccc2c(c1)NC1(CCCCC1)N=2,-17%,138%,-64%[inhibitor],21,-9,3,?
COc1cc(/C=N/Nc2ccc(S(N)(=O)=O)cc2[N+](=O)[O-])cc(OC)c1O,6%,1.2%,-21%,1.2,-7,2,-23%
CCN1C[C@@H]2[C@@H]3C(=O)N(C)C(=O)[C@@H]3[C@](CC)(C(=O)OC)N2C1=NC,nt,-0.5%,nt,nt,nt,-4,9%
Cn1nccc1NC(=O)NC(=O)c1c(Cl)cccc1Cl,18%,0.7%,-33%,-2.3,2,-15,4%
CCOC(=O)c1nn(-c2ccccc2C)c(=O)c(C#N)c1C,0%,-0.5%,0%,-1.4,5,26,-9%
Cc1cccc(-n2ncc3c2CCCC3NC(=O)C2=CC(=O)CC(C)(C)O2)c1C (stereo not given),12%,-0.4%,9%[15.4 µM],-1.2,14,-27,-23%
CC(C)OC(=O)c1c(NC(=O)C2CC=CCC2C(=O)O)sc2c1CCCCC2 (stereo not given),11%,-7.2%,22%,-5.1,7,0,?
O=C1NC2(CCCCC2)C(=O)N1CCS(=O)(=O)Oc1ccc(Br)cc1,10%,nt,-2%,0.1,0,-3,-7%
C=CCNC(=O)C(=O)NCC(c1ccc2c(c1)OCO2)N1CCN(c2ccc(F)cc2)CC1 (stereo not given),9%,0.7%,24%,0.4,4,-14,1%
CN1C(=O)CC(C(=O)Nc2ccc(F)cc2)SC1=Nc1ccc2c(c1)OCO2 (stereo not given),4%,0.2%,-52%[inhibitor],5.0,-21,8,-11%
O=C(C[n+]1ccccc1)NNc1ccccc1,nt,-3.2%,nt,nt,16,-23,6%
